Bioassay records: PubChem, National Center for Advancing Translational Sciences (NCATS)
D2 potentiator: human D2 receptor positive allosteric modulation | P14416 | DiscoveRx D2 beta-arrestin cells, luminescence, 90 min; 100% = 57 uM dopamine signal | potentiation, % (concentration not given with the values) | 360,000 tested, 0.23% active; active = potentiation of 50% or more; inconclusive = 30% to 50%; inactive = 30% or less;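 further: compound concentration not given in the record; tested on top of an EC20 dose of dopamine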
Target sequence (P14416 whole entry, looked up): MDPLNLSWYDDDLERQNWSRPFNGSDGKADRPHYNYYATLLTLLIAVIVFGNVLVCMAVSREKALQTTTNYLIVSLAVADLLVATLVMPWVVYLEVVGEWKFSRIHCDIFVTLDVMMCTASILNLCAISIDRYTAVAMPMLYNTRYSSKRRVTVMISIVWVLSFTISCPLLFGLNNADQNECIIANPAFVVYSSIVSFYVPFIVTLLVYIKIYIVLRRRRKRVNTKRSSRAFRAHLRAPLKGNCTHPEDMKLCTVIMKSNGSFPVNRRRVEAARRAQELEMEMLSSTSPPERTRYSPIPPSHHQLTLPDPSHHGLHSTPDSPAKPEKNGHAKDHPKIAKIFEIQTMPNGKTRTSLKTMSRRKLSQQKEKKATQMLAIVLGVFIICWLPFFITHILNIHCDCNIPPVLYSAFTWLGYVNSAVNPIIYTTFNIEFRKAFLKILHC
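PathHunter beta-arrestin assay in DiscoveRx D2 cells. Compounds were added with an EC20 of dopamine (50 nM final) for 90 min at 37 deg C. Luminescence was read 1 h after detection reagent, with 57 uM dopamine as the EC100 control.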
PINK1 modulator: changes PINK1 expression | 410,000 tested, 0.2% active | PINK1 immunofluorescence, high-content cytometry, 24 h | Potency, µM (doses to about 76.6 µM), inactives show at the top dose activation (PINK1 increase), most hits filed as activators; active = well fitted activation curve with a large enough effect; inconclusive = small, poorly fitted or top-dose-only effect; inactive = flat fitted curve, though single readings scatter; cell line not stated here;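 further: potency means the concentration at half of the fitted maximal effect; % of control where 0% means no effect; nearly all actives have a fitted effect of over 65% in size; a mitochondrial uncoupler was the plate control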
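Fluorescence from anti-PINK1 antibody, together with nuclear and cell stains, was scanned on a laser-scanning cytometer. Before staining, stable-line cells were incubated 24 hours with compounds at 5 concentrations; primary antibody 12 h at 10 degrees C.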
Six1-Eya2 blk: Six1/Eya2 interaction inhibition; Q15475+O00167; AlphaScreen GST-Six1/His-Eya2 binding, biochemical; active compounds read low; control for the full effect not named in the record; activity change, % (concentration not given with the values); 360,000 tested, 0.56% active; AID 651725; in the data active = activity change below about -65%; inconclusive = about -30% to -65%; inactive = above about -30%; further: on the % scale 0 is the no-effect control and ±100 the full control effect
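Compounds are tested against tagged Six1 and Eya2 proteins bridged by glutathione donor and nickel acceptor beads; after a one-hour incubation at 37 °C without light, AlphaScreen emission is recorded.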
D2 agonist: human D2 receptor agonism in beta-arrestin assay; DiscoveRx PathHunter D2 beta-arrestin, luminescence, 90 min; 100% = 57 uM dopamine signal; 360,000 tested, 0.084% active; activation, % (test concentration not listed); AID 624465; in the data active = activation above about 40%; inconclusive = about 15% to 40%; inactive = below about 15%; further: compound concentration not given in the record; the text of the record calls up to 30% inactive
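Agonist mode: compounds alone added to overnight-plated D2 PathHunter cells for 90 min at 37 C, with 57 uM final dopamine (EC100) defining full response. Beta-arrestin recruitment detected by chemiluminescent reagent, read after 1 h at ambient temperature.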
TRPML1 inh: human mucolipin-1 channel inhibition; Q9GZU1; 390,000 tested, 0.02% active; TRPML1-inducible cells, Ca2+ dye fluorescence, FDSS; active compounds read low; inhibition of EC80 agonist-evoked calcium signal; activity change, negative = inhibition, % (test concentration not listed); in the data active means activity change below about -50%; inconclusive means about -30% to -50%; inactive means above about -30%;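 further: stimulus is agonist 54-4 at its EC80 concentration; on the % scale 0 is the no-effect control and ±100 the full control effect; compound concentration not given in the record; the text of the record puts the active cut at -80%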
Target sequence (Q9GZU1 whole entry, looked up): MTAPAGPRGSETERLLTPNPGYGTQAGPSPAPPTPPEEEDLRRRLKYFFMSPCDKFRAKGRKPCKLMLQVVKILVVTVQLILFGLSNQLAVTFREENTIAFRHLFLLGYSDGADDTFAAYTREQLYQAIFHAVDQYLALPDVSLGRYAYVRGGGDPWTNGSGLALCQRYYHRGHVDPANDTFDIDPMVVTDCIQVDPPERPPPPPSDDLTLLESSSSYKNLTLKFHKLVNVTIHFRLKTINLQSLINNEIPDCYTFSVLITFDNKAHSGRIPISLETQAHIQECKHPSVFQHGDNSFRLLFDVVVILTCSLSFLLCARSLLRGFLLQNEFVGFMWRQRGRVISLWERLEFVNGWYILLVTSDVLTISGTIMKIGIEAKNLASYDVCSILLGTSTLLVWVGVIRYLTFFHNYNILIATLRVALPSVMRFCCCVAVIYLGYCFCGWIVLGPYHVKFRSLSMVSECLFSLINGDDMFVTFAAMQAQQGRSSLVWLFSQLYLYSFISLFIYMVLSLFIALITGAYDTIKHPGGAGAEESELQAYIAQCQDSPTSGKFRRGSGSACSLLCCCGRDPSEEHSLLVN
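Tet-induced TRPML1-DL cells loaded with Ca8 no-wash calcium dye were read kinetically on FDSS. Compound addition was followed by EC80 agonist 54-4 (4 uM final); inhibition was read over 110 s.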
TRPML1 agonist: agonists of human TRPML1 channel; Q9GZU1; activation, % (concentration not given with the values); 410,000 tested, 0.12% active; TRPML1-expressing cells, Ca2+ dye fluorescence, FDSS; host cell line not named in the record; reference of the full effect not given here; in the data active = activation above about 50%; inconclusive = about 30% to 50%; inactive = below about 30%; further: 0% is about no effect; the text of the record puts the active cut at 80%
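Kinetic FDSS Ca2+ read in Tet-induced TRPML1-DL cells (ABD Ca8 dye plus quencher, 45-90 min RT loading): baseline, then compound, then 110 s agonist window; EC80 agonist 54-4 at 4uM final added afterwards for a 110 s antagonist window.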
Starred values were filed as active, the others as inactive; ? = inconclusive; nt = no result given; & = joins results of further samples; [ ] = remark or other dose. Rows are unselected (roughly 1% active in at least one column).

smiles	D2 potentiator	PINK1 modulator	Six1-Eya2 blk	D2 agonist	TRPML1 inh	TRPML1 agonist
Cc1cccc(C)c1-n1nnnc1SCSc1nnnn1-c1c(C)cccc1C	-3	?	-2	-1.9	20	1.7
Cc1ccc(-c2nc3ccccc3nc2Cl)cc1	-3	0.7%	12	-1.4	9	1.4
Cc1cc(N2CCOCC2)nc(SCc2ccc(Cl)cc2Cl)n1	-4	4.6%	15	-0.7	46	1.9
O=C(OCc1nnc(-c2ccccc2)o1)c1cc(S(=O)(=O)N2CCOCC2)c(Cl)cc1Cl	3	4.0%	2	-0.9	4	-0.6
CCOC(=O)NC1(C(F)(F)F)C(=O)NC(C)=C1C#N (stereo not given)	-13	0.9%	4	-1.3	13	-0.1
CCOC(=O)c1nn(-c2ccccc2)c(=O)cc1SC(C)CC (stereo not given)	-3	1.4%[38.3 µM]	5	1.7	3	3.7
CC(=O)c1cc2c(cc1NS(=O)(=O)c1ccc(F)cc1)OCO2	-8	4.6%	-20	-4.6	-6	-0.3
COc1ccc(/C=C/C(=O)Nc2cc(C)on2)cc1	-6	1.7%	2	-2.3	-4	0.8
C[C@H](CO)N1C[C@H](C)[C@@H](CN(C)Cc2ccc3c(c2)OCO3)Oc2ccc(NC(=O)Cn3cnnn3)cc2C1=O	0	1.6%	-6	1.1	10	-0.1
Cc1ccc(CC(=S)N2CCOCC2)cc1	-2	-1.4%	2	1.2	15	-0.5
C=C(C)COc1ccc(-c2n[nH]c(C)c2-c2ccc(OC)c(OC)c2)c(O)c1	-9	-0.5%	-9	-0.2	10	2.7
Cc1cccc(C(=O)O/N=C(\N)c2ccccn2)c1	14	4.0%	4	4.0	11	-0.6
Cc1cc(C)cc(NC(=O)N2CCc3ccccc3C2)c1	-15	-0.7%	5	-5.8	-3	0.4
COc1ccc(/C=N/Nc2ccccn2)cc1O	-6	-0.1%	-9	-1.6	16	-0.3
CC(C)C(=O)N(Cc1ccccc1)c1ccccn1	-10	6.7%[38.3 µM]	18	-0.7	2	-0.4
COC(=O)N1C(=O)[C@](c2ccccc2)(C2CCCC2)N1C(=O)OC	-10	3.5%	-1	-4.3	-5	-1.0
COc1ccc(CCNC(=O)C(=O)Nc2nccs2)cc1OC	16	-0.5%	-1	-2.6	2	-0.2
OCCN1CCN(CC(O)COc2ccc3ccccc3c2)CC1 (stereo not given)	-8&-12	-1.8%&-0.2%	-5&8	-3.4&0.2	-10&9	-0.2&-0.1
Cc1csc(NC(=O)CSc2nc3ccccc3c3c2CCCC3)n1	-6	0.5%	-7	-1.2	-24	0.0
O=C(CSCc1cnn(-c2ccccc2)c1-n1cccc1)NCCN1CCOCC1	-7	-1.5%	-3	-3.6	2	-0.2
Cn1c(CNC(=O)c2ccccc2F)nnc1SCC(=O)NCc1ccccc1	-5	0.0%	9	-2.7	-12	0.2
CSc1ccccc1NC(=O)c1cc(-c2cccnc2)nc2ccc(Br)cc12	-3	-1.7%	0	0.9	37	0.7
COc1ccccc1-c1nnc(SCC(=O)N2CCCCC2)o1	13	0.7%	6	2.4	-9	0.0
CCC(C(=O)Nc1cccc(C#N)c1)n1c(=O)c(-c2ccccc2NC(C)=O)nc2ccccc21 (stereo not given)	nt	0.4%	nt	nt	22	2.8
NC(=O)c1cccnc1Nc1ccccc1F	-9	1.2%	-5	2.9	-9	0.7

Next section.
smiles	D2 potentiator	PINK1 modulator	Six1-Eya2 blk	D2 agonist	TRPML1 inh	TRPML1 agonist
Cc1ccc([N+](=O)[O-])cc1S(=O)(=O)N1CCCN(C)CC1	2	1.9%	10	1.6	4	0.0
CC1CCC(C(C)C)C2=C1C(C#N)(C#N)C(C#N)(C#N)C(c1ccccc1)N2 (stereo not given)	26	-2.8%	-19	?	4	0.3
CC(=O)c1ccc(NC(=O)c2cn(-c3ccccc3)nc2-c2ccncc2)cc1	-24	9.0%	4	-2.9	-19	0.2
CCOc1ccc(S(=O)(=O)N2CCCCC2)c2ccccc12	-8	-0.5%	7	-3.1	3	-0.9
C=CCOc1ccc(C2NC(=S)NC3=C2CCc2ccccc23)cc1 (stereo not given)	-10	-0.5%	-19	3.1	19	0.9
CCn1c(O)c(N=NC2=NC(=O)CS2)c2cc(C)ccc21	-30	-1.8%	-17	-6.5	14	0.4
Cc1ccc(NC(=O)CN(C)Cc2cccs2)cc1Cl	-14	3.2%	4	-1.8	-5	-0.4
COc1ccc(-c2cn3ccccc3n2)cc1OC	-15	2.0%[38.3 µM]	-3	1.1	6	-0.4
O=c1[nH]c(=O)n(C(c2ccccc2)c2ccccc2)cc1Br	-15	0.9%	1	-2.8	17	-0.9
O=C(NCC1CC1)c1csc(COCCO)n1	-2	1.0%	31	-3.3	nt	1.6
CC1CCN(CC(=O)NCc2ccccc2)CC1	-11	-1.2%[38.3 µM]	10	2.0	12	1.2
CCn1nccc1NC(=O)c1csc([C@H]2C[C@H](O)[C@@H](CO)O2)n1	-5	-0.3%	5	-4.0	nt	0.8
COc1cc(C(=O)NCc2ccc(OCCN(C)C)cc2)cc(OC)c1OC	-38	0.2%	6	-4.2	-11	0.3
CCCN(CCC)CCCNC(=O)c1cn(CC)c2ccc(S(=O)(=O)N3CCOCC3)cc2c1=O	-9	-0.2%	1	2.0	34	-0.3
CCOC(=O)c1c(C)nc2sc3c(=O)n(-c4ccc(C(C)=O)cc4)nnc3c2c1-c1ccc(Cl)cc1	-2	-1.3%	-11	-2.3	12	-0.2
O=C(Cn1c(=O)n(Cc2cccs2)c(=O)c2cccnc21)Nc1ccccc1F	nt	-1.3%	nt	nt	28	0.3
CC(C)NS(=O)(=O)c1ccc(NCCCn2ccnc2)c([N+](=O)[O-])c1	-11	-0.3%	1	-4.9	48	-0.2
Cc1[nH]nc2c1C(c1cccs1)C(C#N)=C(N)O2 (stereo not given)	-10	4.9%	8	-6.2	-9	0.4
Cc1ncoc1C(=O)Nc1ccccc1-c1ccccc1	-6	-6.9%[38.3 µM]	3	2.1	14	-0.1
C=C1CCN([C@@H](C)C(=O)NCc2ccc(OC)cc2)S(=O)(=O)c2ccccc21	-8	3.0%	9	-2.2	4	-0.2
O=C(O)Cn1c(CC(=O)N2CCCC2)nc2ccccc21	0	nt	-4	-4.6	-6	0.1
COc1ccc(S(=O)(=O)Nc2ccccc2C(=O)NN2CCOCC2)cc1OC	17	-0.8%	10	-1.2	1	1.5
CN(C)c1ccc(C(CN)c2c[nH]c3ccccc23)cc1 (stereo not given)	-21	-2.0%	?	8.9	24	0.5
Cc1c(OCC(=O)N[C@@H](Cc2ccccc2)C(=O)O)ccc2c1oc(=O)c1ccccc12	-10	-0.6%	-18	7.3	nt	nt
COc1ccc(CCNC(=O)CSc2nc(C)nc3c2oc2ccccc23)cc1OC	1	2.3%	2	-1.1	-5	0.0

The final 2 records of the section above open the next one:
smiles	D2 potentiator	PINK1 modulator	Six1-Eya2 blk	D2 agonist	TRPML1 inh	TRPML1 agonist
Cc1c(OCC(=O)N[C@@H](Cc2ccccc2)C(=O)O)ccc2c1oc(=O)c1ccccc12	-10	-0.6%	-18	7.3	nt	nt
COc1ccc(CCNC(=O)CSc2nc(C)nc3c2oc2ccccc23)cc1OC	1	2.3%	2	-1.1	-5	0.0
O=C(c1cccc(F)c1)N1CCN(c2ccc([N+](=O)[O-])c(N3CCCCC3)c2)CC1	-11	-0.5%	?	-5.0	11	-0.5
CCCCC(=O)NC(=S)Nc1nnn(CCC)n1	-20	0.0%	-2	-8.1	16	0.4
O=C(CCN1CCN(S(=O)(=O)c2ccc(Cl)cc2)CC1)Nc1ccc(F)cc1	-8	-0.6%	3	-0.7	-13	-0.1
CC(O)[C@H]1CNC(=O)C(=O)N1CC1(c2ccccc2)CC1 (stereo not given in full)	-4	0.9%	3	1.1	7	0.9
CCCn1c(SCC(=O)NC2CCCC2)nc2c1c(=O)n(C)c(=O)n2C	-11	1.5%	-1	1.2	-9	-0.2
CC1=C(C(=O)N2CCCC(CCC(=O)NCc3ccc(F)c(F)c3)C2)OCCO1 (stereo not given)	-7	-1.0%	-12	-2.6	20	-0.1
Nc1ccc(S(=O)(=O)c2ccc(Cl)cc2)cc1	-1	2.4%[38.3 µM]	5	-3.8	6	0.7
COc1ccc(CNc2ncnc3c2[nH]c2cc(OC)c(OC)cc23)cc1	-18	2.2%	?	-3.6	-4	0.0
Cc1ccccc1CNC(=O)c1sc2ncnc(N(C)C3CCCCC3)c2c1C	nt	0.6%	nt	nt	14	-0.9
O=c1c(-c2nc3ccccc3s2)cccn1Cc1ccccc1	-12	15%	31	-2.3	5	-0.9
CC1(C)Cc2c(cnn2-c2cccc(F)c2)C(NC(=O)c2ccc(=O)[nH]n2)C1 (stereo not given)	-1	-0.1%	0	-5.1	-9	0.7
COc1cccc(/C=C2/C(=O)NN(c3ccc(Br)cc3)C2=O)c1O	-10	1.3%	2	-6.3	25	-0.3
CC(C)(C)c1ccc(OCC(=O)NCC(c2cccs2)N2CCOCC2)cc1 (stereo not given)	-2	1.4%	4	4.6	-8	-0.7
CC(C)c1ccc(-c2nc(N3CCCC3)nc3n[nH]c(N)c23)cc1	-6	4.7%	0	-0.9	3	0.4
CCOC(=O)COc1ccc2c(c1)C(=O)CC1(CCN(C(C)=O)CC1)O2	-6	19%[38.3 µM]	1	-0.3	-5	0.8
COc1cccc(CNS(=O)(=O)c2cn(C)cn2)c1	-3	-5.2%	2	-2.4	12	0.2
O=C(/C=C/c1ccccc1)Nc1cc(S(=O)(=O)N2CCOCC2)ccc1N1CCOCC1	-17	9.5%	28	-3.1	-1	1.4
O=C(c1ccc(F)cc1)N1CCC(c2nc3ccccc3s2)CC1	nt	0.6%	nt	nt	4	0.6
COc1cccc(NC(=O)N2CCC(NC(=O)c3ccco3)CC2)c1	-10	-2.1%	14	-2.6	-17	0.6
CC(=O)N/C(=C\c1ccccc1Cl)C(=O)O	-2	2.8%	3	1.2	-16	-0.1
COc1ccc(C(=O)Oc2c(Sc3ccccc3)c(C)nn2-c2ccccc2)cc1OC	nt	5.4%	nt	nt	19	0.7

An excerpt of the results above, as a working copy:
smiles	D2 potentiator	PINK1 modulator	Six1-Eya2 blk	D2 agonist	TRPML1 inh	TRPML1 agonist
Cc1ccc(CC(=S)N2CCOCC2)cc1	-2	-1.4%	2	1.2	15	-0.5
C=C(C)COc1ccc(-c2n[nH]c(C)c2-c2ccc(OC)c(OC)c2)c(O)c1	-9	-0.5%	-9	-0.2	10	2.7
Cc1cccc(C(=O)O/N=C(\N)c2ccccn2)c1	14	4.0%	4	4.0	11	-0.6
Cc1cc(C)cc(NC(=O)N2CCc3ccccc3C2)c1	-15	-0.7%	5	-5.8	-3	0.4
COc1ccc(/C=N/Nc2ccccn2)cc1O	-6	-0.1%	-9	-1.6	16	-0.3
